High-throughput results from PubChem.
CBX7 inh – blocks human CBX7 binding to H3K27me3 peptide; O95931; AlphaScreen His6-CBX7 / biotin-H3K27me3 peptide binding; active compounds read low; normalised signal (fraction of DMSO) (concentration not given with the values); actives 1.1% (n = 66,000); AID 1224903; in the data active = normalised signal below about 0.5;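 also: 100 nL library stock added to about 20 µL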
Target sequence (O95931 whole entry, looked up): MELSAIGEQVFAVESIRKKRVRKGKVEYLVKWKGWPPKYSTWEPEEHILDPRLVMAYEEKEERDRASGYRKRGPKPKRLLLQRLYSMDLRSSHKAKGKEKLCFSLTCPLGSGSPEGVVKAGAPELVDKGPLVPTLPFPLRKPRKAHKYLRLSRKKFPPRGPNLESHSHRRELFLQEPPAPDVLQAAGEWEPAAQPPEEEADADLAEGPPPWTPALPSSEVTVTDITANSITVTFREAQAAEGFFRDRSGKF
CBX7 inh z-score – second read-out of CBX7 inh, no call of its own (marks repeat the call); z-score; measured here: z-score of CBX7 signal; some inactives read as strong as hits; reference of the scale not given here;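 same signal on another scale; lower means less binding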
* marks the source's active call; other numbers are inactive results. This is a subset (hit frequency here may not be typical).

The first 2 entries, ahead of the listing:
entry	Structure	CBX7 inh z-score	CBX7 inh
1	COc1ccc(-c2nc3cnccn3c2NC2CCCCC2)cc1	4.03	1.32
2	CCOc1cc(C2Nc3ccc4ccccc4c3C3=C2C(=O)CCC3)ccc1O (stereo not drawn)	-1.46	0.865

Results, from the start:
entry	Structure	CBX7 inh z-score	CBX7 inh
1	COc1ccc(-c2nc3cnccn3c2NC2CCCCC2)cc1	4.03	1.32
2	CCOc1cc(C2Nc3ccc4ccccc4c3C3=C2C(=O)CCC3)ccc1O (stereo not drawn)	-1.46	0.865
3	Cc1ccc(-c2noc(COc3ccc(C(C)C)cc3)n2)cc1	1.64	1.06
4	CCC(C)NC(=O)C1(C)CCC(=O)N1CCc1ccccc1 (stereo not drawn)	0.97	1.06
5	Cc1nn(C)c(-c2nnc(NCC(C)C)s2)c1Cl	-0.851	0.972
6	Cc1cccc(CN2CCN(CC(=O)NCCCN3CCCC3=O)C2=O)c1	-1.02	0.95
7	O=C(CCc1nc(-c2cccs2)no1)Nc1ccccc1F	-0.65	0.976
8	Cn1c(-c2nonc2NC(=O)c2ccccc2Cl)nc2ccccc21	0.295	1.01
9	O=C(c1ccccc1)c1ccccc1NC(=O)[C@@H]1CCCN1Cc1ccccc1	0.275	1.02
10	CCCSCCCNC(=O)Cn1cc2c(n1)CCCC2	1.36	1.04
11	CCOc1ccc(OCC)c(-n2cc(-c3ccc(OCC)c(Cl)c3)[nH]c2=O)c1	-0.754	0.966
12	COc1ccccc1N1CCN(c2ncc(C(=O)Nc3ccc(C)c(F)c3)c3ccccc23)CC1	1.26	1.09
13	CC(=O)Oc1ccc(C(=O)Nc2ccc(S(=O)(=O)Nc3nc(C)cc(C)n3)cc2)cc1	2.37	1.27
14	Cc1ccc(-n2ncc3c(NCc4ccccn4)ncnc32)c(C)c1	-0.877*	0.119*
15	CCCOc1ccc(-c2nc(Oc3ccc(C)cc3)c3ccccc3n2)cc1	4.03	1.15
16	O=C(NC1CCCC1)C1CCC(CNS(=O)(=O)c2cccc3cccnc23)CC1 (stereo not drawn)	0.364	1.01
17	COc1cccc(-c2nc(CS(=O)(=O)CC(=O)N3CCN(c4ccccc4)CC3)c(C)o2)c1	-0.0359	0.999
18	COc1ccc(OC)c2[nH]c(=O)c(CCNC(C)=O)cc12	-0.119	0.993
19	Cc1ccc(S(=O)(=O)N2CCCC(C(=O)NCCc3ccccc3)C2)cc1 (stereo not drawn)	0.897	1.02
20	COc1ccccc1-c1cc(C(=O)N2CCc3ccccc3C2)no1	-0.109	0.908
21	CC1CCN(C(=O)CN2C(=O)COc3ccc(S(=O)(=O)N4CCOCC4)cc32)CC1	0.569	1.02
22	O=C(CSc1nnc(CNC(=O)c2ccccc2F)o1)NCc1ccc(F)cc1	1.21	1.04
23	O=C1CCCc2c1[nH]c1ccc([N+](=O)[O-])cc21	-2.69	0.824
24	CC(NC(=O)COc1ccc(-c2nn(C)c(=O)c3ccccc23)cc1)c1ccccc1 (stereo not drawn)	0.518	1.02
25	COc1ccc(OC)c(CN2C(=O)c3ccccc3C2C(=O)NC2CCCCCCC2)c1 (stereo not drawn)	-4.95	0.75

Next entries.
entry	Structure	CBX7 inh z-score	CBX7 inh
26	Cn1cnc2cc(-c3n[nH]c(=O)c4ccccc34)ccc21	-0.151	0.994
27	Cc1sc2nc[nH]c(=O)c2c1S(=O)(=O)N1CCCCC1	0.15	1.04
28	CCNc1ccc(Br)cc1-c1nc2ccccc2n(CC)c1=O	-10.5*	0.271*
29	Cc1ccc2nc(NC(=O)COc3ccc(Cl)cc3Cl)sc2c1	2.13	1.6
30	COc1ccccc1CNS(=O)(=O)c1c(C)noc1C	0.00695	1
31	Cc1ccc(-c2nnc(Nc3ccc(F)cc3)c3ccccc23)cc1S(=O)(=O)NC(C)C	0.165	1.01
32	CCCc1cc(C(=O)Nc2cccc(Cl)c2C)no1	5.8	1.18
33	CCOC(=O)c1ccc(Nc2cc(C)nc3c(C)cc(C)cc23)cc1	-4.36	0.824
34	COc1ccc(OC)c(-n2cnc3cc(C(=O)NCc4cccnc4)ccc32)c1	-1.96	0.844
35	COc1ccc(Nc2nc(-c3ccccc3Cl)nc3ccccc23)cc1	2.58	1.09
36	COc1ccc(C(=O)Nc2nc(-c3ccccc3)cs2)cc1OC	-3.53	0.834
37	CCn1c(C(=O)N2CCC(C(=O)NCC(C)c3ccccc3)CC2)cc2sccc21 (stereo not drawn)	-0.879	0.8
38	Cc1nc2cc(C(=O)NC3CCCCC3C)ccc2n1-c1ccc(Br)cc1 (stereo not drawn)	0.812	1.05
39	O=C(CCCn1c(=O)[nH]c2ccccc2c1=O)N1CCN(c2cccc(Cl)c2)CC1	-0.136	0.951
40	CC(=O)N1CCc2cc(S(=O)(=O)NC(CC(C)C)C(=O)Nc3cc(C)cc(C)c3)ccc21 (stereo not drawn)	-0.897	0.953
41	CCOC(=O)c1ccc(NC(=O)c2cnc3ccccc3n2)cc1	2.4	1.09
42	OC(CNCC1(c2ccc3c(c2)OCCO3)CCCC1)COc1ccccc1 (stereo not drawn)	-2.84	0.857
43	CCCCNC(=O)c1ccc(-c2ccccc2)nc1C	0.099	1.01
44	O=C(c1ccc(NC2=NC3CS(=O)(=O)CC3S2)cc1)N1CCCCC1 (stereo not drawn)	1.5	1.2
45	CCOc1ccc(CCNC(=O)c2nc(-c3ccc(C)cc3)oc2C)cc1OCC	-1.29	0.968
46	CCOc1ccc(N(CC(=O)O)S(=O)(=O)c2ccc3[nH]c(=O)c(=O)[nH]c3c2)cc1	3.1	1.13
47	COc1ccc(OC)c(NC(=O)CSc2ccc3nnc(-c4ccccc4)n3n2)c1	0.0997	1.01
48	Cc1ccc(-c2nc(CSCC(=O)NCc3cccs3)c(C)o2)cc1	-0.604	0.968
49	COc1ccc(N2CCN(Cc3nc4c(c(=O)[nH]c(=O)n4C)n3Cc3ccccc3F)CC2)cc1	0.268	1.01
50	CN(CCNC(=O)Cn1nc(-c2ccc(Cl)cc2)ccc1=O)Cc1ccccc1	0.979	1.02

Down the list, quoted from above:
Entries 34–44 in CBX7 inh: 0.844, 1.09, 0.834, 0.8, 1.05, 0.951, 0.953, 1.09, 0.857, 1.01, 1.2
Entries 34–44 in CBX7 inh z-score: -1.96, 2.58, -3.53, -0.879, 0.812, -0.136, -0.897, 2.4, -2.84, 0.099, 1.5

Additional entries
entry	Structure	CBX7 inh z-score	CBX7 inh
51	COc1cc2[nH]c(=O)n(Cc3ccc(C(=O)NCCCN4CCC(C)CC4)cc3)c(=O)c2cc1OC	-0.635	0.975
52	CCN(CC)C(=O)c1oc2ccc(S(=O)(=O)N3CCOCC3)cc2c1C	0.973	1.1
53	O=C(CCCN1C(=O)c2cccnc2C1=O)Nc1cccc(Cl)c1	-3.39	0.798
54	COc1cccc(CNC(=O)c2cnn3c(C(F)(F)F)cc(-c4cccs4)nc23)c1	0.779	1.12
55	CCCN1Cc2cccc(C(=O)Nc3cc(Cl)ccc3C)c2C1=O	2.68	1.21
56	Cc1ccc(OCCn2c(SCCC(=O)O)nc3ccccc32)cc1	3.46	1.18
57	Cc1cccc(N2CCN(C(=O)c3cccc(NC4=NC5CS(=O)(=O)CC5S4)c3)CC2C)c1 (stereo not drawn)	-2.05	0.812
58	O=C(Nc1ccccc1)N(CCCN1CCOCC1)Cc1cccs1	0.00976	1.01
59	COc1ccc(C)cc1NC(=O)C1(S(=O)(=O)c2ccc(C)cc2)CC1	-0.357	0.972
60	CCOC(=O)C1CCN(C(C(=O)NC2CCCC2)c2ccc(OC)cc2)CC1 (stereo not drawn)	1.41	1.03
61	COc1ccc(-c2cc3nc(C)c(CCC(=O)Nc4ccccc4C)c(C)n3n2)c(OC)c1	1.04	1.08
62	COC(=O)c1ccccc1NC(=O)Cn1ncc2c1-c1ccccc1OC2	-0.815	0.935
63	O=C(Cn1nc(-c2ccccc2)c2cc(Cl)ccc21)NCc1ccccn1	-0.865	0.975
64	COc1ccc(Cl)cc1C(=O)Nc1c2c(nn1-c1ccc(C)cc1)CSC2	0.587	1.03
65	O=S(=O)(Nc1ccc2oc3c(c2c1)CCCC3)c1ccc(Cl)cc1	0.281	1.02
66	CCC(=O)N1CCc2cc(S(=O)(=O)Nc3ccc(C)cc3)ccc21	0.775	1.04
67	CCOC(=O)N1CCC(Nc2c(NCCOC)c(=O)c2=O)CC1	0.711	1.04
68	COc1ccc(-n2ccnc2SCC(=O)NCc2ccccc2)cc1	-0.161	0.878
69	COc1ccc(-c2onc(C)c2-c2ccccc2)c(O)c1	1.65	1.15
70	COc1ccc2nc(NC(=O)C3CCN(S(=O)(=O)c4c(C)noc4C)CC3)sc2c1	0.648	1.01
71	CC(C)(C)c1ccc(OCCCC(=O)NCCc2nc3ccccc3[nH]2)cc1	-1.16	0.97
72	O=C(CC(Nc1ccc2ccccc2c1)c1cccnc1)c1ccc(Cl)cc1 (stereo not drawn)	0.863	1.03
73	O=C(Nc1ccc2nc3n(c(=O)c2c1)CCCCC3)C1CCCO1 (stereo not drawn)	1.58	1.05
74	O=S(=O)(Nc1nc2ccccc2nc1Nc1ccc(Cl)cc1)c1ccccc1	-2.75	0.904
75	COCCCNC(=O)CSc1nc(-c2ccc(F)cc2)[nH]c1-c1ccc(F)cc1	-0.19	0.955

Exported with each value named: entries from further up.
[64] COc1ccc(Cl)cc1C(=O)Nc1c2c(nn1-c1ccc(C)cc1)CSC2
  CBX7 inh z-score: 0.587 | CBX7 inh: 1.03

[65] O=S(=O)(Nc1ccc2oc3c(c2c1)CCCC3)c1ccc(Cl)cc1
  CBX7 inh z-score: 0.281 | CBX7 inh: 1.02

Single values from above:
compound 62 | CBX7 inh z-score = -0.815
compound 68 | CBX7 inh z-score = -0.161
compound 71 | CBX7 inh z-score = -1.16
compound 57 | CBX7 inh z-score = -2.05
compound 52 | CBX7 inh = 1.1
compound 53 | CBX7 inh = 0.798

The list goes on:
entry	Structure	CBX7 inh z-score	CBX7 inh
76	O=C(COc1ccc(Cl)cc1)NCc1nnc(SCC(=O)N2CCCc3ccccc32)o1	-0.764	0.95
77	O=C(CC1Nc2ccccc2NC1=O)NCc1ccccc1 (stereo not drawn)	0.975	1.12
78	Cc1ccc2nc(Nc3nc(C)c4ccccc4n3)[nH]c(=O)c2c1	-0.114	0.996
79	NC(=O)COc1ccc(Nc2nnc(-c3ccc(Cl)cc3)c3ccccc23)cc1	-1.71	0.909
80	CS(=O)(=O)CC[C@@H](C(=O)Nc1cccc(F)c1)N1Cc2ccccc2C1=O	0.564	1.09
81	CCOC(=O)c1cc(-c2ccccc2)n(CCC(=O)NCc2ccccc2Cl)c1C	-1.41	0.922
82	Cc1nnnn1-c1nc(-c2ccco2)cc(C(F)(F)F)n1	0.971	1.03
83	O=C(CCCN1C(=O)CSc2ncccc21)NCCCc1ccccc1	0.0485	1.02
84	COC(=O)c1cc2occc2n1Cc1nc(-c2cccc(Cl)c2)oc1C	0.941	1.03
85	CN1CCN(c2ccccc2NC(=O)Cn2ncc3c2-c2ccccc2OC3)CC1	2.7	1.09
86	O=C(CCCNS(=O)(=O)c1ccc2c(c1)CCC(=O)N2)NCc1ccc(F)cc1	1.18	1.03
87	Cc1cc(Nc2cccc(C(F)(F)F)c2)nc2cc(O)ccc12	1.26	1.06
88	COc1ccc(C)cc1S(=O)(=O)NCCc1c(C)[nH]c2ccc(F)cc12	-0.0798	0.996
89	COc1ccc(-c2nn(C)c3sc(C(=O)NCCCN4CCCCCC4)cc23)cc1OC	-0.803	0.938
90	CCCCNC(=O)CCc1nc2ccccc2n(Cc2c(F)cccc2Cl)c1=O	-0.181	0.982
91	COc1cccc(OC)c1C(=O)Nc1nc2c(s1)C(=O)CC(C)(C)C2	-1.65	0.945
92	O=C(Cn1nc(-c2ccc(Cl)cc2)ccc1=O)N1CCCCC1	0.264	1.01
93	O=C(CN1CCN(Cc2cccc(Cl)c2)C1=O)NCc1cccnc1	-1.27	0.912
94	COc1ccc(N(C)C(=O)Cn2ncc3c2-c2ccccc2OC3)c(OC)c1	-0.684	0.976
95	CC1CCN(c2nc3ccc(C(=O)N4CCN(c5ccccc5)CC4)cc3s2)CC1	-1.75	0.814
96	COc1ccc(CCNC(=O)c2ccc3c(c2)N(Cc2ccc(C)cc2)C(=O)CS3)cc1OC	0.94	1.02
97	C=CCn1c(=O)c(C(=O)NCc2ccccn2)c(O)c2ccccc21	1.02	1.06
98	COc1ccc(-c2n[nH]c(C)c2Oc2ccccc2)c(O)c1	-4.9	0.684
99	O=C(Nc1ccc2oc(-c3ccccc3Cl)nc2c1)c1cncc(Br)c1	0.214	1.01
100	CCOc1ccc(NC(=O)CSc2nnc(Cc3cccn3C)n2-c2ccc(C)cc2)cc1	-0.112	0.995

New compounds follow.
entry	Structure	CBX7 inh z-score	CBX7 inh
101	COCCNC(=O)c1cc2c(s1)-c1ccccc1OC2	0.82	1.02
102	O=C1CC(c2ccccc2Cl)=Nc2ccccc2N1	-0.507	0.883
103	Cn1c(=O)n(CC(=O)Nc2cccc(C(F)(F)F)c2)c2ccccc21	1.5	1.03
104	O=C(C1CCN(S(=O)(=O)c2cnc[nH]2)CC1)N1CCN(c2cccc(Cl)c2)CC1	-1.73	0.866
105	O=[N+]([O-])c1ccc(CSc2cccc3cccnc23)cc1	-0.586	0.94
106	Cc1ccc(OCc2nc3ccccc3n2CCCOc2ccc(Cl)cc2)cc1	-1.48	0.875
107	COc1ccc(N(C)C(=O)COc2cc(=O)n(C)c3ccccc23)c(OC)c1	0.475	1.03
108	CCN(CC)S(=O)(=O)c1cc(C(=O)Nc2nccs2)ccc1Br	1.67	1.11
109	CCCCNC(=O)c1nc(-c2cccc(OC)c2)oc1C	0.0844	1.01
110	Cc1nc2c(-c3ccc(F)cc3)c(C)nn2c(C)c1CCC(=O)NCc1ccc(Cl)cc1	-1.19	0.951
111	CCC(=O)N1CCc2cc(S(=O)(=O)NC(CC(C)C)C(=O)Nc3ccc(CC)cc3)ccc21 (stereo not drawn)	0.195	1
112	Cc1ccccc1Cc1c(C)nc2nc(SCC(=O)NC3CCCC3)nn2c1C	0.258	1.01
113	COc1cccc(-c2nc(CS(=O)(=O)CC(=O)NCCCN3CCN(C)CC3)c(C)o2)c1	0.256	1.03
114	CCC1Oc2ccccc2N(CC(=O)NCCCN2CCN(Cc3ccccc3)CC2)C1=O (stereo not drawn)	1.11	1.04
115	CCCCn1cnc2cc(NCc3ccccc3OCC)ccc21	-23.3*	0.189*
116	COC(=O)c1cc2occc2n1CC(=O)Nc1ccccc1OC	-2.48	0.916
